# Autofluor counter = flagged as autofluorescent in microsphere protease counterscreen | compound autofluorescence counterscreen, microsphere flow cytometry; active compounds read high | fluorescence intensity (concentration not given with the values) | 3.1% of 360,000 active | AID 624483;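 active = at least 3 SD above the mean of all compounds, about 16000 in these data; inconclusive = too few beads counted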;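 note: 100 nL of 1 mM stock went into each well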
# ugtP null kill = kills S. aureus RN4220 lacking UgtP; AID 1259309; 0.54% of 330,000 active; growth inhibition, % (concentration not given with the values); S. aureus RN4220 ugtP deletion, OD600 growth, 16 h; some inactives read as strong as hits;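 active = z-score under -3 and OD600 up to 0.15 on both plates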;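 note: plate controls were untreated wells for no effect and antibiotic for full effect; wells of about 80 µL received 100 nL stock; the first replicate is given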
# RN4220 kill = kills Staphylococcus aureus RN4220 | S. aureus RN4220 growth, OD600, 16 h | inhibition, % (test concentration not listed) | 0.33% of 330,000 active;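 active = z-score of -3 or lower and OD600 up to 0.18 on both plates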;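 note: plate controls were untreated cells for no effect and reference antibiotic for full effect; stock transfer was 100 nL into about 80 µL; one replicate is shown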
# Mtb hypoxia inh = Mtb hypoxia fluorescent reporter inhibition. 0.1% of 300,000 active. fluorescence inhibition, % (test concentration not listed). M. tuberculosis hypoxia-regulated fluorescent reporter, fluorescence;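 active = 35 to 45% if threefold the growth effect, above 45% if 1.5-fold the growth effect; inactive = the rest, general growth blockers included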;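 note: wells of about 50 µL received 100 nL stock; 0% = vehicle wells and 100% = reference inhibitor wells; whole bacteria with a GFP reporter of the hypoxia response; strong numbers were not always called active; many hits fall short of the cut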
# PrP UTR inh = suppresses PrP 5' UTR mRNA reporter expression | cell-based PrP 5' UTR mRNA reporter, plate reader | inhibition, % (test concentration not listed) | 0.35% of 340,000 active | AID 488862;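 active = every replicate at 50% or more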;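 note: 0 = median of the neutral control wells; tested in H4 reporter cells; numbers are from one replicate; inactives centre near -14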
# BJeLR lethal = kills HRASV12-expressing BJeLR cells; inhibition, % (concentration not given with the values); 0.17% of 300,000 active; BJeLR (HRASV12) viability, CellTiter-Glo ATP luminescence, 48 h; reference of the scale not given here;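 active = replicate mean above 50%; inconclusive = above 50% but judged a plate artefact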;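 note: 50 nL library stock added to about 25 µL; numbers are from one replicate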
# Mtb hypoxia inh growth = also measured in Mtb hypoxia inh; calls as there; growth inhibition, %; measured here: M. tuberculosis growth (absorbance);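 0% = vehicle and 100% = reference antibiotic; read after six days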
# Numbers without * were called inactive; ? = inconclusive; nt = not tested or not shown; & = joins results of further samples. No enrichment for hits (roughly 4% active in at least one column).
# Sample of the layout, 5 compounds:
Molecule,ugtP null kill,Mtb hypoxia inh growth,Autofluor counter,RN4220 kill,PrP UTR inh,BJeLR lethal,Mtb hypoxia inh
COc1ccc(CCNc2c(C=O)c(=O)[nH]c3ccccc23)cc1OC,13,-15,3864,3.3,-33,4,4
COc1ccc(NS(=O)(=O)c2cc(NC(=O)C3CC3)ccc2N2CCCCC2)cc1,-1,4,4306,5.8,-31,-2,4
CC1CCCC(NC(=O)CSc2nnc(-c3cccnc3)n2N)C1C (stereo not drawn),-2,8,18627*,0.5,-7,nt,10
COc1ccc(C2C(C(=O)c3ccc(C)o3)=C(O)C(=O)N2Cc2cccnc2)cc1 (stereo not drawn),6,11,4906,-2.8,-25,-4,-8
OCCN1CN=C(Nc2nc3ccccc3s2)NC1,6,8,10414,3.7,-35,6,3

# Results (from the top)
Molecule,ugtP null kill,Mtb hypoxia inh growth,Autofluor counter,RN4220 kill,PrP UTR inh,BJeLR lethal,Mtb hypoxia inh
COc1ccc(CCNc2c(C=O)c(=O)[nH]c3ccccc23)cc1OC,13,-15,3864,3.3,-33,4,4
COc1ccc(NS(=O)(=O)c2cc(NC(=O)C3CC3)ccc2N2CCCCC2)cc1,-1,4,4306,5.8,-31,-2,4
CC1CCCC(NC(=O)CSc2nnc(-c3cccnc3)n2N)C1C (stereo not drawn),-2,8,18627*,0.5,-7,nt,10
COc1ccc(C2C(C(=O)c3ccc(C)o3)=C(O)C(=O)N2Cc2cccnc2)cc1 (stereo not drawn),6,11,4906,-2.8,-25,-4,-8
OCCN1CN=C(Nc2nc3ccccc3s2)NC1,6,8,10414,3.7,-35,6,3
Cc1ccc(/C=C/C(=O)N2CCN(S(=O)(=O)c3ccc(C)c(C)c3)CC2)o1,-2,4,2557,8.4,-3,-9,8
C/C(=N\N=C\c1cccc(F)c1)c1nnn(-c2nonc2N)c1C,nt,nt,2154,nt,-7,-10,nt
Cc1cnc(C(=O)OCC(=O)Nc2c(Cl)cc(Cl)cc2Cl)cn1,1,-4,4226,2.1,-28,nt,-8
CC1CCCN(S(=O)(=O)c2cccc(-c3cn4cccnc4n3)c2)C1 (stereo not drawn),-5,10,2995,-17,-14,40,6
O=C(Nc1ccc(C(F)(F)F)cc1)c1ccccc1Br,-2,3,4493,5.3,-58,3,-1
COC(=O)C1CCN(C(=O)COC(=O)c2oc3ccc(OC)cc3c2C)CC1,nt,nt,6225,nt,-8,6,nt
Cc1cnc(C(=O)OCC(=O)N(CC(C)C)C2CCS(=O)(=O)C2)cn1 (stereo not drawn),-2,6,8068,-0.6,-1,nt,-9

Molecule,ugtP null kill,Mtb hypoxia inh growth,Autofluor counter,RN4220 kill,PrP UTR inh,BJeLR lethal,Mtb hypoxia inh
Cc1ccc(S(=O)(=O)N2CCN(C(=O)COC(=O)/C=C/c3ccccc3)CC2)c(C)c1,0,-2,6309,2.1,-7,nt,-3
CCN(C(=O)COC(=O)c1ccc(SC)cc1OC)C1CCS(=O)(=O)C1 (stereo not drawn),1,5,3665,9.6,-17,nt,13
CC(C)C(=O)Nc1cccc(NC(=S)NC(=O)c2ccccc2Cl)c1,-5,-4,?,-1.4,-18,-3,-12
O=C(O)c1cc(S(=O)(=O)NC(CO)C(O)c2ccc([N+](=O)[O-])cc2)ccc1Br (stereo not drawn),14,6,3568,4.6,-18,-7,9
Cc1ccc(C)c(CN2CCC(CNC(=O)Nc3cccc(Cl)c3C)CC2)c1,nt,nt,3752,nt,-7,0,nt
Cc1c(C)c2ccc(OCC(=O)N3CC[C@@]4(O)CCCC[C@H]4C3)c(C)c2oc1=O,-4,nt,5460,6.3,-26,-1,nt
COC(=O)c1ccccc1CSc1nsc(C)c1C#N,16,8,4068,4.6,-22,-9,3
CCOc1ccc(N2CC(C(=O)Nc3ccccn3)CC2=O)cc1 (stereo not drawn),11,13,4307,3.7,-6,-4,12
CCCOC(=O)COC(=O)c1ccccc1NC(=O)c1ccccc1,6,2,2256,5.0,-11,-8,2
CCc1ccc(OCC(=O)N2CC(C(N)=O)Oc3ccccc32)cc1 (stereo not drawn),-4,-1,3605,-0.8,-18,0,-13
O=S(=O)(Nc1ncnc2c1oc1ccccc12)c1ccc(Cl)s1,-10,8,?,10,-17,3,2
Cn1c(C(=O)OC(C(=O)NC2CCCCC2)c2cccnc2)cc2sccc21 (stereo not drawn),-2,1,4101,-6.3,-8,5,-2

Molecule,ugtP null kill,Mtb hypoxia inh growth,Autofluor counter,RN4220 kill,PrP UTR inh,BJeLR lethal,Mtb hypoxia inh
O=C1c2ccccc2C(=O)N1CCCCSc1nnc2ccccn12,0,-4,3489,-10,-12,0,2
COC(=O)c1sccc1NC(=O)CC1C(=O)NCCN1C(=O)Nc1ccc(F)cc1F (stereo not drawn),2,7,6319,-0.6,-5,-4,-2
Cn1c(SCC(=O)NC2CC2)nnc1C1CC1,5,-17,5582,-1.8,-16,-6,-3
CC(C)c1ccc(-n2nc3ccc(N)cc3n2)cc1,-2,5,3314,17,-8,2,-5
COc1ccc(F)cc1S(=O)(=O)NCCN1CCOCC1,-2,-11,3171,-0.5,-17,14,-3
Cc1cc(N2C(=O)C(=O)/C(=C(/O)c3ccc(F)cc3)C2c2cccc(Br)c2)no1 (stereo not drawn),-9,nt,3054,24,-11,7,nt
CC(C=Cc1cccnc1)=CC(=O)O,-5,-15,nt,2.6,nt,nt,-27
NC(=S)NN=Cc1ccc(C=NNC(N)=S)cc1,8,nt,nt,1.9,nt,nt,nt
O=C(CC1CC=CCCCC(=O)OCC2CCCN2C1=O)NC(CO)Cc1ccccc1 (stereo not drawn),-1&1,6&2,nt,4.4&3.2,nt,nt,3&12
CCNC(=S)NCCC1=c2ccccc2=N/C1=C\c1c(O)n(C)c(=O)n(C)c1=O,9,-2,4620,3.6,-4,-2,-2
CCOC(=O)C1CCCN(C(=O)CCc2nnc(-c3ccc(C(C)=O)s3)o2)C1 (stereo not drawn),-7,11,6129,-1.4,-76,1,-3
CCOC(=O)C(=O)NCC(c1cccs1)S(=O)(=O)c1ccc(Cl)cc1 (stereo not drawn),13,-6,4444,5.4,-8,15,1

Molecule,ugtP null kill,Mtb hypoxia inh growth,Autofluor counter,RN4220 kill,PrP UTR inh,BJeLR lethal,Mtb hypoxia inh
CC(Oc1cccc([N+](=O)[O-])c1)C(=O)NCCC1=CCCCC1 (stereo not drawn),0,12,5571,4.0,-9,nt,1
COc1nccnc1NS(=O)(=O)c1ccc(N=Cc2c(C)[nH]n(-c3ccc(C)c(C)c3)c2=O)cc1,10,19,10726,7.1,-15,29,12
Cc1ccc(C(=O)N/N=C/C=C/c2ccccc2)cc1,nt,nt,2141,nt,-16,-6,nt
O=C(CCc1nnc(Cc2ccc3c(c2)OCO3)o1)NC(c1ccccn1)C(F)(F)F (stereo not drawn),8,-3,2605,1.3,-16,5,7
O=C(COC(=O)CCC(=O)c1ccccc1)Nc1nnc(-c2ccccc2)o1,5,16,?,10,-17,-5,4
Cc1cc(C)nc(SCc2cn3ccccc3n2)n1,2,4,4194,5.4,-35,-13,9
O=C(Cn1c(=O)c2cccn2c2ccc(F)cc21)N1CCN(c2ccc(F)cc2)CC1,-2,-2,5887,-2.9,-4,0,-2
O=C(Cn1cc2c(n1)CCCC2)N1CCOCC1,1,nt,5679,-2.0,1,4,nt
O=C1C=C(c2ccccc2)CC(/C=C/c2ccccc2)C1 (stereo not drawn),nt,nt,2249,nt,-25,-1,nt
COc1ccc(-c2nc(C(N)=O)c3[nH]c(=O)n(-c4cccc(C)c4)c3n2)c(OC)c1,12,8,4193,2.9,4,-4,10
Cc1ccc(-c2nc3cccnc3s2)cc1NS(C)(=O)=O,-2,6,4353,-8.1,-51,-27,3
COC(=O)C1=C(C)N(Cc2ccccc2)C(=NCc2cc(OC)c(OC)c(OC)c2)NC1c1ccccc1 (stereo not drawn),-13,-14,nt,-5.4,nt,nt,-13

# Record cards, from the list above. Values in the order: ugtP null kill | Mtb hypoxia inh growth | Autofluor counter | RN4220 kill | PrP UTR inh | BJeLR lethal | Mtb hypoxia inh
# COC(=O)c1ccccc1CSc1nsc(C)c1C#N across the screens: 16 | 8 | 4068 | 4.6 | -22 | -9 | 3
# O=C(COC(=O)CCC(=O)c1ccccc1)Nc1nnc(-c2ccccc2)o1 across the screens: 5 | 16 | ? | 10 | -17 | -5 | 4
# O=C(CCc1nnc(Cc2ccc3c(c2)OCO3)o1)NC(c1ccccn1)C(F)(F)F (stereo not drawn) across the screens: 8 | -3 | 2605 | 1.3 | -16 | 5 | 7

# (listing goes on)
Molecule,ugtP null kill,Mtb hypoxia inh growth,Autofluor counter,RN4220 kill,PrP UTR inh,BJeLR lethal,Mtb hypoxia inh
CC(=O)NC(CCS(C)(=O)=O)C(=O)Nc1cccc(Cl)c1Cl (stereo not drawn),5,4,4371,7.0,-15,6,1
Fc1ccccc1N1CCN(C2CCN(Cc3c[nH]c4ccccc34)CC2)CC1,0,14,10692,1.8,-19,10,14
C(=C\c1ccccc1)/CSc1ccccn1,5,-5,2944,5.2,-9,6,1
O=c1oc(-c2cccs2)nc2sc3c(c12)CCCCC3,-13,5,4299,13,-44,-10,3
CCOc1ccc(C(=O)COC(=O)c2c(-c3ccccc3)noc2C)cc1,4,3,6451,1.9,-34,1,8
CN(CC(=O)NCc1ccncc1)S(=O)(=O)c1ccc(F)cc1,-6,11,11521,1.5,-21,-7,2
Cc1ccccc1OCCOc1ccc([N+](=O)[O-])cc1C=Nn1cnnc1,-13,-6,nt,-2.0,nt,nt,-5
O=C(C1=C(O)C(=O)N(CCN2CCOCC2)C1c1cccs1)c1cc2ccccc2o1 (stereo not drawn),5,7,4581,1.6,-5,8,0
CCOc1ccc2c(S(=O)(=O)O)cccc2c1[N+](=O)[O-],4,12,4018,2.9,-9,nt,13
CC(CCc1c[nH]c2ccccc12)=NO,2,7,nt,3.7,nt,nt,8
COCCNC(=O)C(c1ccncc1)N(C(=O)Cn1nnc2ccccc21)c1ccc(OC)cc1 (stereo not drawn),4,nt,3036,-0.6,-23,-2,nt
CCC(Oc1ccccc1)C(=O)Nc1nnc(S(=O)(=O)N2CCCCC2)s1 (stereo not drawn),10,-14,4613,-0.9,-2,4,-7

Molecule,ugtP null kill,Mtb hypoxia inh growth,Autofluor counter,RN4220 kill,PrP UTR inh,BJeLR lethal,Mtb hypoxia inh
CCN(CC(=O)Nc1ccccc1Br)Cc1nc2ccccc2c(=O)[nH]1,-6,10,3475,4.7,1,-1,2
CCOc1ccc2c(c1)C(c1ccc(C)cc1)=NNC(c1ccc(OC)cc1)=N2,30,0,7995,-11,-36,-4,1
O=C(CNc1cccc(C(F)(F)F)c1)NN=Cc1cn(-c2ccccc2)nc1-c1ccccc1,-23,3,nt,-9.6,nt,nt,4
CCOC(=O)N1CCN(S(=O)(=O)c2ccc(OC)c(Cl)c2Cl)CC1,-3,nt,3004,0.5,-8,1,nt
O=C(Nc1cccc2ccccc12)N1CCN(c2ccccc2)CC1,-5,nt,2226,-5.1,-4,nt,nt
Cc1ccc(COc2ccc(C=NNC(=O)c3nnn(-c4nonc4N)c3COc3ccc(F)cc3)cc2)cc1,5,10,nt,9.2,nt,nt,12
O=C(Cn1cc(C(F)(F)F)ccc1=O)N1CCN(S(=O)(=O)c2ccccc2)CC1,2,-2,9791,0.8,-17,-9,3
O=C(Nc1ccc(Br)cc1)C1CC=CCC1C(=O)OCC1CCCO1 (stereo not drawn),3,-6,9159,2.1,-4,-12,0
COc1ccc(C(=O)NC2CCCCC2)cc1S(=O)(=O)N1CCCC1,8,nt,3528,8.9,-13,-5,nt
C=CCNc1nc(-c2ccccc2)nc(-n2ccnc2)n1,-14,-7,18305*,3.4,3,-3,5
Cc1ccc(C(=O)N2CCC(C)CC2)cc1S(=O)(=O)N1CCCCC1,1,-10,nt,3.4,-9,5,-2
CCOC(=O)c1ccc(NC(=S)NC2CCCC2)cc1,-11,9,2125,-0.5,-47,4,16

Molecule,ugtP null kill,Mtb hypoxia inh growth,Autofluor counter,RN4220 kill,PrP UTR inh,BJeLR lethal,Mtb hypoxia inh
CCCOC(=O)C1C2C=CC(C2)C1C(=O)OCC(=O)c1ccccc1 (stereo not drawn),17,-5,?,3.6,-11,0,-4
CCOC(=O)C1CCCN(S(=O)(=O)c2c(C)[nH]c(C)c2C(=O)N2CCCC2)C1 (stereo not drawn),7,0,5409,2.9,-24,6,7
COc1ccc(N(C(=O)c2snc(C(N)=O)c2N)C(C(=O)NC2CCCC2)c2cccs2)c(OC)c1 (stereo not drawn),19,8,5456,7.7,-7,-11,-7
COc1ccccc1NC(=O)COc1ccccc1,8,-1,5494,6.9,-18,-3,-2

# Bioassay records (PubChem BioAssay)
